Ecoli growth: blocks Escherichia coli growth. AID 1053175. 0.21% of 330,000 active. OD600, 23 h; active compounds read low. OD600 absorbance (concentration not given with the values);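 active means OD600 absorbance below the run mean of sample wells minus 3.6 SD, in any replicate, cut at about 0.56 in these data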;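 further: stock transfer was 300 nL into about 60 µL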
UCH37 DUB inh: inhibitors of human deubiquitinating enzyme UCH37; 0.33% of 330,000 active; AID 588478; inhibition, % (test concentration not listed); purified proteasome/UCH37, Ub-AMC cleavage fluorescence; Q9Y5K5;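 active means mean of two replicates above 20%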;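 further: 0% = compound-free wells with enzyme and 100% = wells lacking proteasome; stock transfer was 100 nL into about 20 µL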
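Schedule: 30 min plus 25 min, room temperature / Material: human UCH37 within purified proteasomes / Technique: AMC fluorescence intensity at 355/460 nm / Buffer or medium: pH 7.4 Tris-HCl (50 mM) with ovalbumin, ATP-MgCl2, DTT / Controls: wells without proteasome as full block, compound-free enzyme plus substrate as uninhibited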
Bfl-1 A1 inh: inhibitors of the anti-apoptotic protein A1, read as caspase activation; AID 2462; 0.066% of 330,000 active; caspase activation, % (concentration not given with the values); MEF A1-2A-BIM cells, Caspase-Glo 3/7 luminescence, 3 h; percent of clofoctol response, vehicle zero;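 active means over half of replicate activation scores above 10%, or exactly half above 10 with the replicate mean above 10; inconclusive means replicate mean below 10 yet half the replicates above 10; inactive means over half of replicates below 10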;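 further: wells of about 30 µL received 50 nL stock; many hits fall short of the cut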
LANA-H2B inh: blocks KSHV LANA binding to histone H2A/H2B. Q9QR71. cell-free LANA-H2A/H2B peptide, fluorescence polarization. inhibition, % (concentration not given with the values). 0.6% of 320,000 active; in the data active means inhibition mostly above about 10%, no sharp cut-off; inactive means mostly below about 6.7%;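 further: stock transfer was 7.5 nL into about 10 µL; 0% = median of vehicle wells and 100% = median of positive control wells; one replicate is shown; the record names a cut of 25% in any replicate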
HNF4A DNA FP: change in binding of human HNF4 alpha to DNA. 0.3% of 360,000 active. activity change, % at 10 µM. HNF4a-FITC DNA binding, fluorescence polarization, 1 h; in the data active means activity change above about 30%, passing the limit was not always enough;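 further: controls were the assay level and a saturating level of protein; the project sought stronger binding though the title names inhibitors; some compounds called inactive have numbers as strong as hits; positive values seem to mean higher polarization but the record does not say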
Target sequence (P41235 whole entry, looked up): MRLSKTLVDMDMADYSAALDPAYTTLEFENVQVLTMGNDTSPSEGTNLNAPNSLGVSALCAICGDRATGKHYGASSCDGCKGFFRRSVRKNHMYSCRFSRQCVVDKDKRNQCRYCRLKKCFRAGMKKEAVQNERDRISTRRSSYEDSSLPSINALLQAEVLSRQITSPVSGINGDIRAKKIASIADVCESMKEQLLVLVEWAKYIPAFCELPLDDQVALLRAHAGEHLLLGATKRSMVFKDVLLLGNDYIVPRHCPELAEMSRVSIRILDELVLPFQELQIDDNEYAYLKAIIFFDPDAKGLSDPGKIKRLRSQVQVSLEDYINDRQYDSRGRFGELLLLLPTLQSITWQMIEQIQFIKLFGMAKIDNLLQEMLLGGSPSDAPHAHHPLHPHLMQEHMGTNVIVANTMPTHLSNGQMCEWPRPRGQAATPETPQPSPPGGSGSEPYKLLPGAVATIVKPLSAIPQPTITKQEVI
Vif A3G: HIV-1 Vif–A3G interaction blockers – biochemical, TR-FRET, GST-Vif 1-94, biotin-A3G peptide, dose response retest, primary screen (AID 1117319) | 0.57% of 260,000 active | TR-FRET GST-Vif / biotin-A3G peptide binding; higher % means a stronger effect; test concentration not given here; strong numbers were not always called active | one-dose inhibition, %; IC50 in µM for titrated hits;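 active means above the screen mean plus three standard deviations and confirmed in dose response; inconclusive means results disagree or hit not tested in dose response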;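 further: Vif residues 1-94 fused to GST binding biotinylated APOBEC3G peptide 110-148; 0% = full assay without inhibitor and 100% = GST in place of GST-Vif; retest series ran down from 100 µM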
Beta2AR agonist: activates human beta-2 adrenergic receptor causing internalization | P07550 | Am2.2-beta2AR cells, FAP receptor internalization, flow cytometry; reference of the scale not given here | response, % (no concentration beside the values) | 0.43% of 340,000 active | AID 504454;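 active means response above a set limit, near 3 SD of response in nonfluorescent compounds, cut at about 42% in these data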;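 further: stock transfer was 100 nL into about 11 µL; a reference agonist was the positive control; negative values mostly stem from fluorescent compounds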
Target sequence (P07550 whole entry, looked up): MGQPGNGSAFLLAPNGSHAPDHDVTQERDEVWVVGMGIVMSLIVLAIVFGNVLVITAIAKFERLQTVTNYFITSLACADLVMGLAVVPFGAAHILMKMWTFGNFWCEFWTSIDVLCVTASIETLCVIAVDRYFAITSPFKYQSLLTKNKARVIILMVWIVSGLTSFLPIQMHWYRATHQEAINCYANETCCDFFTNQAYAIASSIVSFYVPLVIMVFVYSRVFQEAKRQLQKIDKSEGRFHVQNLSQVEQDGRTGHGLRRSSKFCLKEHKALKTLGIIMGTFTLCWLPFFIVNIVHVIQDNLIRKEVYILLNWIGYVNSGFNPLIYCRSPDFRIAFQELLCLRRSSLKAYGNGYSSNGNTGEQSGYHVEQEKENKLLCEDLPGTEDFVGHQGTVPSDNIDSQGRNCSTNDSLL
Starred values were filed as active, the others as inactive; ? = inconclusive; . = not tested or not shown; & = joins results of further samples.

SMILES	Ecoli growth	UCH37 DUB inh	Bfl-1 A1 inh	LANA-H2B inh	HNF4A DNA FP	Vif A3G	Beta2AR agonist
COc1ccc(-c2nc(CC(=O)Nc3cccc(S(=O)(=O)NC4=NCCC4)c3)cs2)cc1	0.664	4.1	.	.	-1.5	11.8%	-2.5
CN(C)C1=NCCN1CCc1ccc(F)cc1	0.726	4.5	2.9	3.5	7.0	.	-8.1
CC(C)CNC(=O)CC(=O)N/N=C/c1ccc(Br)cc1	.	.	-0.3	4.9	0.0	-3.0%	-4.3
Cc1ccc(/C=N/NC(=O)Cc2ccc(Cl)cc2)s1	.	.	-0.7	-0.6	-0.8	14.4%	0.9
Cc1nc(SCc2ccc(OCCC(C)C)cc2)n[nH]1	0.661	0.9	-1.7	7.7	1.8	0.7%	-7.4
CCOc1cc2[nH]c(=S)n(Cc3ccc(C)o3)c(=O)c2cc1OCC	0.699	-0.9	0.9	2.8	1.3	2.9%	1.5
Cc1cc(C)c(OCC(=O)OCC(=O)N2CCCc3ccccc32)c(C)c1	0.657	1.1	-0.3	3.0	-3.3	5.9%	-10.3
CCCCn1c(C(C)NC(=O)c2cccs2)nc2ccccc21 (stereo not drawn)	0.685	4.8	-0.6	-2.3	3.3	-8.7%	-22.1
CC(=O)Nc1ccc(C(=O)NNC(=O)c2ccc(Cl)cc2Cl)cc1	0.665	3.1	0.4	-5.3	0.3	2.2%	-14.9
CN(c1ccccc1)S(=O)(=O)c1cccc(NC(=O)CSc2nncn2C)c1	0.659	2.0	0.0	-4.9	0.4	11.5%	-3.4
FC(F)Oc1ccc(NC(=S)NNc2ccnc3cc(Cl)ccc23)cc1	0.658	9.2	0.6	2.2	39.0	0.2%	9.7
Cc1cnc2c(c1)C(=O)c1ccccc1-2	0.642	1.2	-0.2	0.3	4.0	1.3%	1.0
COc1ccccc1CNC(=O)COC(=O)c1ccc(Cl)c(N)c1	0.646	-6.2	0.4	1.3	-1.0	-7.0%	-5.8
COc1ccc(CNC(=S)Nc2ccccc2)cc1	0.654	6.1	0.5	2.6	-0.4	-3.0%	2.6
O=C(COc1ccc2c(c1)OCO2)Nc1ccccc1F	0.684	4.2	-7.7	-1.8	3.5	.	-1.7
O=C(N/N=C/c1cccc2nccnc12)c1ccncc1	.	.	-0.1	-0.9	-0.6	32.1%	-6.1
Cc1cc(/C=C2\SC(=S)NC2=O)c(C)n1-c1cccc(O)c1	0.677	1.6	-0.4	-7.4	97.3*	?	-5.4
COc1ccc(NC(=O)N2CCn3c2nc2ccccc23)cc1	0.691	5.0	0.8	4.1	2.6	-7.1%	2.2
CC(C)n1c(SCC(=O)Nc2ccc3c(c2)OCO3)nc2c1c(=O)n(C)c(=O)n2C	0.686	4.1	0.8	-1.9	1.4	10.6%	2.1
Cc1ccc(-c2noc(CSc3nnc(-c4ccncc4)n3-c3ccc(C)cc3)n2)cc1	0.689	4.3	-0.2	-6.1	4.0	-5.7%	-4.6
CNC(=O)CCC(=O)Nc1ccc(C)cc1	0.691	0.6	0.2	-0.5	-1.8	-0.2%	5.5
CC(C)(C)n1nc2c(c1NC(=O)c1ccc(F)c(F)c1)CS(=O)(=O)C2	0.738	0.6	-1.3	1.0	-0.3	.	-1.9
O=C(OCc1cc(Cl)cc2c1OCOC2)c1cccnc1Cl	0.635	-0.2	-0.6	-7.0	-0.2	-9.9%	-5.3
COc1ccc(C(=O)N/C(=C\c2ccco2)C(=O)NCc2cccnc2)cc1	0.715	4.0	-0.3	2.2	2.1	22.5%	-2.5
O=C1c2cccnc2C(Nc2ccc(Br)cc2)N1Cc1cccs1 (stereo not drawn)	0.689	3.7	0.6	1.9	-0.1	.	4.0
CSc1ccc(N=Nc2c(C)[nH]n(C)c2=O)cc1	0.681	13.3	-5.9	3.1	-2.0	12.2%	-5.7
S=C(Nc1ccc(Cl)cc1)NC1CCCCC1	0.645	2.4	-0.1	-5.0	-0.5	?	0.4
Cn1nnnc1SCC(=O)N1CCN(S(=O)(=O)c2ccccc2)CC1	0.651	2.8	0.9	-1.2	0.4	.	2.0
O=C(Cc1ccccc1)NCc1nc2ccccc2[nH]1	0.66	1.1	0.1	-7.2	-3.0	-9.1%	-4.3
Fc1ccc2cc(-c3cccnc3)ncc2c1	0.629	-23.0	-1.5	3.0	-5.2	.	-9.2
O=C(NCCOc1ccccc1)c1ccc2n[nH]nc2c1	0.691	2.9	-4.8	1.2	3.3	2.4%	-4.5
COCCN(CC(=O)Nc1ccc(F)cc1)S(=O)(=O)c1ccc(S(=O)(=O)N2CCCC2)cc1	0.74	0.0	0.2	1.0	2.2	-1.9%	-1.9
CCc1c(C)nc(SC)n(CC#N)c1=O	0.682	3.4	-0.2	-2.0	0.3	1.7%	9.3
C=CCOc1ccc(/C=C2\SC(N3CCCCC3)=NC2=O)cc1	0.684	2.8	0.2	4.5	0.5	.	2.9
CCN1C[C@@H]2[C@@H]3C(=O)N(Cc4ccccc4)C(=O)[C@@H]3[C@](C)(C1=O)N2C(=O)c1ccccc1	.	4.8	.	.	-4.5	.	-2.8
O=C(O)c1sccc1Oc1ccc(NS(=O)(=O)c2ccccc2)cc1	0.682	2.6	0.2	-6.8	1.2	-1.0%	-9.7
CCOC(=O)CSc1n[nH]c(NC(C)=O)n1	0.692	4.5	1.2	2.5	2.1	-4.2%	-2.3
CC(=O)N(C)Cc1ccc(C(=O)CCl)cc1	0.646	6.2	0.7	1.9	2.2	5.4%	4.3
CC(=O)Nc1ccc(NC(=O)CN(c2ccccc2Cl)S(C)(=O)=O)cc1	0.675	2.1	0.0	2.6	0.9	2.0%	12.8
CCCn1c(SCC(=O)Nc2sc(C)c(C)c2C#N)nnc1C(C)C	0.712	-0.6	0.1	1.9	4.1	8.2%	-8.2
O=C(NCC(=O)N1CCCC1)c1ccc(Br)o1	0.638	0.1	1.1	-14.9	1.3	.	6.0
COc1cc(OC)cc(C(=O)NCC(=O)NC(C)c2ccccc2)c1 (stereo not drawn)	0.677	1.7	-0.4	-5.7	-1.6	-7.8%	1.6
CC(C)C[C@@H](CN=[N+]=[N-])N1CCN(C)CCC1=O	.	1.3	-0.2	-1.9	3.0	.	2.2
O=C(CN1C(=O)C2CC=CCC2C1=O)Nc1ccc(S(=O)(=O)N2CCOCC2)cc1 (stereo not drawn)	0.726	0.4	-0.3	2.3	0.4	.	0.7
Cc1cnc(C=NNC(N)=S)c2cccc(N)c12	.	.	.	.	-49.7	29.6%	-3.3
CC(C)C(=O)N(Cc1ccc(F)cc1)Cc1nc2ccccc2c(=O)[nH]1	0.654	-0.5	0.7	-4.6	1.1	-4.0%	-0.1
O=C1CCCC(c2ccccc2)N1 (stereo not drawn)	0.679	2.1	0.5	-2.4	-2.5	9.7%	-6.2
COc1ccc(-c2ccc(-c3nc4ccc(C)cn4c3NC3CCCCC3)cc2OC)cc1	0.746	-250.9	0.2	-5.1	0.9&5.0	.	4.3
COc1ccc(NC(=O)c2ccccc2C(=O)N2CCCCC2)cc1	0.698	4.3	0.6	-3.6	-1.1	5.7%	-2.1
CCNS(=O)(=O)c1ccc(CCC(=O)N2CCOCC2)cc1	0.65	0.1	0.0	4.2	2.6	.	15.5
COc1cc(/C=N/Nc2nc3ccccc3[nH]2)cc(Br)c1OCC(=O)N(C)C	.	.	-0.2	5.2	1.8	10.3%	-8.1
Cc1cc(=O)[nH]c2c1c(=O)[nH]n2C1CC(C)N(C)CC1C (stereo not drawn)	0.71	3.2	0.6	-2.6	-0.4	?	5.9
COc1ccc(C(=O)Nc2sc3c(c2C#N)CCN(C(C)=O)C3)cc1	0.652	2.8	0.8	-2.2	17.0	0.7%	-1.2
C/C(CC(=O)Nc1ccc(Cl)c(C(F)(F)F)c1)=N\NC(=O)c1ccccc1O	.	.	-0.9	-0.1	0.5	.	-14.3
COc1ccc(S(=O)(=O)N(CC(=O)N2CCOCC2)Cc2ccccc2)cc1C	0.719	1.4	-0.1	1.8	0.1	0.0%	3.0
CC(=O)c1ccc(N(CC(=O)Nc2cc(C)on2)S(=O)(=O)c2ccc(C)cc2)cc1	0.688	0.3	?	-4.4	-2.1	-5.3%	-10.1
Nc1cc(N)nc(SCc2cc(=O)oc3cc4c(cc23)CCC4)n1	0.701	4.3	-0.3	-5.2	1.6	1.9%	-9.6
Cc1cc(C)n2c(Nc3ccc4c(c3)OCCO4)c(-c3ccccc3)nc2n1	0.699	-2.6	-2.7	-0.5	0.6	20.7%	-13.7
CCOc1ccc(N(CC(=O)N/N=C/c2cc(Br)c(C)o2)S(C)(=O)=O)cc1	.	.	-1.6	-0.1	-3.2	10.1%	-0.2
CCC1(c2ccc(Cl)cc2)NC(=O)N(CC(=O)NC2CCCC(C)C2C)C1=O (stereo not drawn)	0.7	2.2	.	.	-0.8	5.1%	-4.0
(further entries)
SMILES	Ecoli growth	UCH37 DUB inh	Bfl-1 A1 inh	LANA-H2B inh	HNF4A DNA FP	Vif A3G	Beta2AR agonist
Cc1ccc(-n2c(C)cc(C=C(C#N)C#N)c2C)cc1	0.716	-1.5	0.5	-4.7	-2.2	-8.6%	4.6
COc1ccc(CN2CC(C(=O)NCC3CCCO3)CC2=O)cc1 (stereo not drawn)	0.714	0.3	0.6	3.5	-0.3	-1.9%	12.0
O=C(CCC(=O)N1CCN(c2cccc(Cl)c2)CC1)N1CCN(c2ccccc2)CC1	0.618	4.9	0.0	2.2	-1.9	-1.7%	-5.8
Cc1ccc(NC(=S)Nc2nc(CC(=O)Nc3ccccc3)cs2)cc1	0.746	-0.1	0.9	0.4	1.2	-17.2%	5.2
CC(C)c1cc(C(=O)O)c2cnn(C(C)C)c2n1	0.705	-7.6	0.3	4.4	-0.5	-1.4%	2.8
COc1ccc(C(=O)/C=C/C(=O)N(CC(=O)NCCC(C)C)Cc2cccs2)c(O)c1	0.679	-2.8	.	.	1.2	6.1%	119.7*
O=C(/C=C/c1ccccc1)N/C(=C/c1ccccc1)C(=O)N1CCOCC1	.	44.6*	0.0	0.1	-4.1	.	-3.5
CC(=O)c1ccc(NC(=O)C2CCN(S(=O)(=O)c3cccc4nonc34)CC2)cc1	0.705	1.2	0.1	-3.2	-1.8	.	-2.0
COc1cc(C)c(C2NC(=O)c3ccccc3N2)cc1C (stereo not drawn)	.	.	.	.	1.4	37.0%	-13.6
Cc1ccc(C(C(=O)NC2CCCC2)N(C(=O)Cc2cccs2)c2cccc(C)c2C)o1 (stereo not drawn)	0.665	5.7	0.3	-1.9	1.3	2.2%	9.7
CCN(Cc1nc2ccccc2c(=O)[nH]1)C(=O)c1cc2c(s1)CCCCC2	0.688	5.0	-0.4	-1.0	0.9	-22.0%	-3.2
Cc1ccc(C)c(N2CCN(C(=O)C3CCCN(S(=O)(=O)c4cnc[nH]4)C3)CC2)c1 (stereo not drawn)	0.773	4.1	0.3	3.9	5.3	7.1%	6.2
O=C(Cc1cccc(NC(=O)C2CCCN(C(=O)C3CCCCC3)C2)c1)Nc1ccc(C(=O)N2CCOCC2)cc1 (stereo not drawn)	0.676	1.4	.	.	-4.2	.	-3.0
Cc1nnc(SCCC(=O)Nc2nc(-c3ccccc3)ns2)s1	0.694	3.3	0.0	-0.6	5.6	3.6%	9.1
COc1ccc(NC(=S)N(CCC(C)C)C2CCN(C(C)=O)CC2)cc1	0.62	0.8	2.9	1.6	-0.5	8.1%	3.0
CC(=O)Nc1ccc(NC(=O)c2ccc([N+](=O)[O-])cc2Cl)cc1	0.722	3.4	-1.3	11.7	1.5	-4.6%	-2.8
Cc1ccc(C)c(Oc2coc3cc(O)ccc3c2=O)c1	0.64	-193.1	0.1	-10.2	5.2	-3.5%	1.9

Screening data from PubChem BioAssay.
